High-throughput results as filed in PubChem.
Calb FLC = C. albicans growth modulation with fluconazole; growth inhibition, % (no concentration beside the values); C. albicans CaCi-2 (fluconazole-resistant clinical isolate) + fluconazole, Alamar Blue growth, 48 h; hit rate 0.57% among 300,000;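 active = most replicates above 75%; inconclusive = exactly half above 75%; inactive = most below 75%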;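 also: all wells also contain fluconazole at 8 µg/ml as a sub-toxic cotreatment; 0% = median of DMSO wells and 100% = median of geldanamycin control wells; wells of about 8 µL received 7.5 nL stock; the first replicate is given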
LANA-H2A inh = blocks KSHV LANA binding to histone H2A/H2B | Q9QR71 | cell-free LANA-H2A/H2B peptide, fluorescence polarization | inhibition, % (concentration not given with the values) | hit rate 0.6% among 320,000 | AID 2629; in the data active = inhibition mostly above about 10%, no sharp cut-off; inactive = mostly below about 6.7%;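 also: stock transfer was 7.5 nL into about 10 µL; 0% = median of vehicle wells and 100% = median of positive control wells; one replicate is shown; the record names a cut of 25% in any replicate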
RanGTP-Impb inh = disruptors of Ran-importin-beta complex formation – biochemical, FRET, CFP-Ran, YFP-importin-beta, homogeneous, primary screen; hit rate 1.1% among 300,000; inhibition, % (no concentration beside the values); cell-free CFP-Ran/YFP-importin-beta FRET ratio;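 active = most replicates above 15%; inconclusive = exactly half above 15%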;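 also: 0% = DMSO wells and 100% = Ran loaded with GDP instead of GTP; wells of about 40 µL received 100 nL stock; the first replicate is given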
HNF4A DNA FP = change in binding of human HNF4 alpha to DNA; HNF4a-FITC DNA binding, fluorescence polarization, 1 h; activity change, % at 10 µM; P41235; hit rate 0.3% among 360,000; in the data active = activity change above about 30%, passing the limit was not always enough;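 also: controls were the assay level and a saturating level of protein; the project sought stronger binding though the title names inhibitors; some compounds called inactive have numbers as strong as hits; positive values seem to mean higher polarization but the record does not say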
Target sequence (P41235 whole entry, looked up): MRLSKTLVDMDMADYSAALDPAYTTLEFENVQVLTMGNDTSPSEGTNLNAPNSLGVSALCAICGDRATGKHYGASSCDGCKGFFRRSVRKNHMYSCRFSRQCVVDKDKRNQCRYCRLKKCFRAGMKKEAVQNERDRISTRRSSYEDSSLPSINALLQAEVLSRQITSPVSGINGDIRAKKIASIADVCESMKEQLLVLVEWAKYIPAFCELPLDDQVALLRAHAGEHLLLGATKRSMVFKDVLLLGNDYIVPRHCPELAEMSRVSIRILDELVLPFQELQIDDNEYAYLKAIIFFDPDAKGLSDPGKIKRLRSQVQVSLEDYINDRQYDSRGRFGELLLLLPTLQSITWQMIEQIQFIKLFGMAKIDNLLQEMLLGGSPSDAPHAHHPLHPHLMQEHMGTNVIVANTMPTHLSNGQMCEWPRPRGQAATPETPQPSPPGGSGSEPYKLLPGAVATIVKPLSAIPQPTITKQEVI
ALR H2O2 inh = inhibitors of human sulfhydryl oxidase ALR | hit rate 3.8% among 290,000 | purified ALR, DTT oxidation, H2O2 HRP-luminol luminescence | inhibition, % (no concentration beside the values) | P55789 | AID 485317;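 active = mean and each replicate at 75% or more; inconclusive = only one of the two met; inactive = neither met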;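 also: stock transfer was 7.5 nL into about 7.5 µL; 0% = neutral wells and 100% = wells with inactivated enzyme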
Target sequence (P55789 whole entry, looked up): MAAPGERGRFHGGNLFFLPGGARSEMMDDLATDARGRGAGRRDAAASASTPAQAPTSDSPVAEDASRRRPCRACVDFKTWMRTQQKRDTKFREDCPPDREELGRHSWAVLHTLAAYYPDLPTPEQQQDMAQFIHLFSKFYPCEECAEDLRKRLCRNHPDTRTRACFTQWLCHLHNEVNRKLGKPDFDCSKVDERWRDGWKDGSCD
Vif TR-FRET = inhibitors of Vif binding to APOBEC3G peptide, primary screen, biochemical, TR-FRET, GST-Vif 1-94, biotin-A3G peptide, dose response retest (AID 1117319). hit rate 0.57% among 260,000. TR-FRET GST-Vif / biotin-A3G peptide binding; higher % means a stronger effect; test concentration not given here; strong numbers were not always called active. inhibition, %; hits with a dose series show IC50 in µM;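 active = above the screen mean plus three standard deviations and confirmed in dose response; inconclusive = results disagree or hit not tested in dose response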;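 also: Vif residues 1-94 fused to GST binding biotinylated APOBEC3G peptide 110-148; 0% = full assay without inhibitor and 100% = GST in place of GST-Vif; retest series ran down from 100 µM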
Beta2AR agonist = human beta-2 adrenergic receptor agonism by FAP | P07550 | Am2.2-beta2AR cells, FAP receptor internalization, flow cytometry; reference of the scale not given here | response, % (no concentration beside the values) | hit rate 0.43% among 340,000;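 active = response above a set limit, near 3 SD of response in nonfluorescent compounds, cut at about 42% in these data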;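 also: stock transfer was 100 nL into about 11 µL; a reference agonist was the positive control; negative values mostly stem from fluorescent compounds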
Target sequence (P07550 whole entry, looked up): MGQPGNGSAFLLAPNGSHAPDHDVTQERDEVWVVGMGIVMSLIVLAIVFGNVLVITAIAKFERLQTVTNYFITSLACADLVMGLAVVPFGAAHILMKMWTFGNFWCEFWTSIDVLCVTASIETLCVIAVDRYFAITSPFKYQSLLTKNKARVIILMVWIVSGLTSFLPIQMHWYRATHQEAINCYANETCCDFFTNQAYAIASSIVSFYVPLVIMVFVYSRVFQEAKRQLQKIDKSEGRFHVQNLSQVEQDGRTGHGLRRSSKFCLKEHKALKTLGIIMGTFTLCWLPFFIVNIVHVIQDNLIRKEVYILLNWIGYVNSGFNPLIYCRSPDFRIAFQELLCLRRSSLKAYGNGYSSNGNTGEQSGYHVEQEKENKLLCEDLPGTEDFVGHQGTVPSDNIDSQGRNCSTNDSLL
Numbers without * were called inactive; ? = inconclusive; / = not tested or not shown. Outcome played no part in choosing rows; overall some 6.3% were active at least once.

SMILES	Calb FLC	LANA-H2A inh	RanGTP-Impb inh	HNF4A DNA FP	ALR H2O2 inh	Vif TR-FRET	Beta2AR agonist
Cc1onc(-c2ccccc2)c1C(=O)OCC(=O)Nc1ccc(OC(F)(F)F)cc1	/	0.6	/	0.0	/	/	-2
CCC1(C)Cc2c(C#N)c(N)sc(=S)c2CO1 (stereo not given)	14	1.2	-2.5	-1.7	1	?	8
O=C(c1cnn(C(=O)COc2ccc(Cl)cc2)c1)c1ccccc1O	-4	0.7	2.3	-4.7	15	-2%	2
O=C(O)CC(C(=O)Nc1ccc(Cl)cc1Cl)C1CCCO1 (stereo not given)	-1	-1.8	2.9	1.8	-11	6%	-9
CCc1ccc(C(=O)C(C)OC(=O)CN2C(=O)NC3(CCCC3)C2=O)cc1 (stereo not given)	/	/	/	1.2	/	9%	3
COc1ccc(S(=O)(=O)N2CCC3(CC2)OCCO3)cc1	-8	-6.9	0.4	-4.1	-2	17%	5
CC(=O)NC(Cc1ccc(F)c(F)c1)C(=O)NC1CCN(C(=O)c2ccc(C)cc2)CC1 (stereo not given)	5	-9.6	0.6	3.2	-2	-1%	-3
CC1=C(C(=O)c2ccccc2)C(c2cn(-c3ccccc3)nc2-c2ccc(Cl)cc2)NC(=S)N1 (stereo not given)	-10	1.4	5.3	3.9	-5	-7%	-3
O=C(N=Nc1c(O)[nH]c2ccc(F)cc12)c1ccc(NS(=O)(=O)c2cccs2)cc1	/	2.0	/	-37	2	-6%	7
COc1ccc(OC)c(S(=O)(=O)N2CCN(c3ccccc3)CC2)c1	-3	6.1	-0.4	1.2	38	/	-4
CC(C)C(=O)N=C1SC2CS(=O)(=O)CC2N1Cc1ccccc1 (stereo not given)	11	-4.1	0.0	0.8	-2	/	5
Cc1sc2nc(C3CC3)nc(SCC(=O)N3c4ccccc4CC3C)c2c1C (stereo not given)	23	-0.1	-0.1	-0.2	-17	3%	-1
COc1ccc(NC2=Nc3cccc4cccc2c34)cc1OC	-1	2.0	-6.1	10	36	-5%	9
CCOC(=O)c1c(O)c2c([nH]c1=O)CCCC2	-9	8.4	-2.5	-2.7	1	33%	-5
CCOc1ncccc1C(=O)OCC(=O)NCc1ccccc1	/	3.5	/	1.4	-3	-3%	-3
Cc1cc(=O)oc2cc(OC(C(=O)O)c3ccccc3)ccc12 (stereo not given)	7	-7.0	-1.5	0.3	1	-11%	-7
O=C(COc1ccc2ccccc2c1)NCCc1ccc2c(c1)OCCO2	-1	0.4	4.0	-0.6	-21	/	1
COC(=O)c1ccccc1NC(=O)CSc1nnc(COc2cccc(OC)c2)n1C	16	2.2	2.1	0.8	/	1%	-3
Cc1occc1C(=O)N1CCCC(N2CCN(c3ccccc3F)CC2)C1 (stereo not given)	-1	-2.2	7.3	-3.7	0	2%	-5
CCOC(=O)C1CCCN(c2oc(-c3ccc(OC)cc3)nc2C#N)C1 (stereo not given)	-32	-4.3	-0.3	-1.1	-14	8%	6
COc1cc(OC)cc(-c2c(C#Cc3ccsc3)c3cc(-c4ccc(OC)nc4)ccc3n2C)c1	/	-2.7	/	3.1	-1	/	0
c1ccc2[nH]c(CN3CCCCCC3)nc2c1	-13	1.6	4.2	-0.3	21	1%	-5
COc1ccccc1C(=O)Nc1ccc(S(=O)(=O)Nc2cc(C)on2)cc1	-24	4.8	6.4	0.8	1	?	5
CC(O)CN1C(=O)C(CC(=O)Nc2ccc(Cl)cc2)SC1=Nc1ccccc1 (stereo not given)	-7	5.2	2.4	-2.1	-4	-2%	2
COCC(=O)Nc1ccccc1C(=O)NC(C)C	-3	-0.2	1.6	-3.6	15	-5%	3
Cc1cccn2c(=O)nc(SCC(=O)N3CCCCC3)nc12	-3	-5.1	-0.8	-3.2	2	-1%	2
COC(=O)c1ccc(=O)c2nc3/c(=C/O)c(O)cc(=O)c3[nH]c12	/	2.6	/	-50	-4	0.35µM*	-1
CC(C)Cc1ccc(CN2CCCC(NC(=O)CCN3CCOCC3)C2)cc1 (stereo not given)	-8	0.0	1.7	16	-11	/	-9
Cc1cccc(N2C(=O)/C(=C/c3cccnc3)SC2=S)c1	-19	-2.3	19*	-0.3	23	-2%	-2
COC(=O)c1cccc(NC(=O)CCNC(=O)c2ccco2)c1	-6	-14	4.5	0.9	/	/	-1
CCOC(=O)Cn1c(C)[n+](CC(=O)c2ccccc2)c2ccccc21	-19	-9.0	2.5	-0.2	0	8%	3
CCOc1ccc(Br)cc1S(=O)(=O)Nc1ccc(C(=O)OCC(=O)N(C)c2ccccc2)cc1	4	-3.7	7.6	0.2	-1	-10%	-1
O=C1NC2c3ccccc3CC2O1 (stereo not given)	4	4.5	5.5	4.7	-6	/	-3
COc1cc(C(=O)OCC(=O)c2ccc(S(=O)(=O)N3CCCCC3)cc2)cc(OC)c1OC	/	-0.6	/	-2.2	/	-15%	-5
CCC(C)(C(=O)NC1CCCC1)N(C(C)=O)c1ccc(C)cc1 (stereo not given)	-4	-7.8	2.2	-0.2	/	-3%	-3
Cc1ccc2cc(CN(CC3CCCO3)C(=O)C(C)C)c(=O)[nH]c2c1 (stereo not given)	0	-1.2	?	0.3	-12	13%	10
COc1ccc(S(=O)(=O)CCC(=O)NC2CCCCC2)cc1	-1	1.7	2.2	-1.4	10	23%	6
Cc1cc2oc(=O)cc(CN3CCCCC3)c2cc1O	-4	1.5	-0.3	0.5	68	-5%	-9
CC(NC(=O)C1CCC(CNS(=O)(=O)c2ccccc2)CC1)c1ccccc1 (stereo not given)	18	-0.7	-1.2	0.1	1	-9%	-5
CC1(C)CC(=O)C2=C(C1)Nc1ccccc1NC2c1cc(Cl)ccc1O (stereo not given)	1	-1.8	1.0	-3.5	/	/	1
COc1cc(/C=C2/NC(=O)N(Cc3ccccc3F)C2=O)cc(OC)c1OC	6	-0.7	-2.4	-2.4	7	-4%	7
CCc1nnc(SCc2cn3c(C)cc(C)nc3n2)n1N	-1	3.4	2.5	-3.5	-1	1%	6
CCN(CC)C(=O)c1nc[nH]c1C(=O)O[C@@H](C)c1ccccc1	/	5.5	/	1.4	-5	/	1
CCOc1ccc(/C=C/C(=O)Nc2ccc(C(N)=O)cc2)cc1OC	3	1.0	0.6	3.3	-9	-3%	0
Cc1ccc(C)c(C(=O)CN2C(=O)CCC2=O)c1	21	0.8	3.4	1.2	-3	0%	1
Cc1c(-n2c(SCC(C)C)nc3ccccc3c2=O)c(=O)n(-c2ccccc2)n1C	30	-1.4	-0.9	-3.1	/	2%	0
CC(=O)NC1CC2CCCC(C1)N2C(=O)Nc1cccc(Cl)c1 (stereo not given)	/	/	/	0.3	/	-1%	-4
O=C(CNC(=O)C1(c2ccccc2)CC1)Nc1ccc(F)c(F)c1	-1	0.2	-3.4	-0.7	0	-10%	-3
Clc1nc(-c2n[nH]nc2Cl)n[nH]1	0	-2.7	-3.1	5.2	57	-4%	4
CCn1nc(NC(C)=O)c2cc3ccc(C)cc3nc21	-4	1.2	3.6	4.1	0	-3%	7
COc1ccc(/C=C(/CC(=O)NCc2ccc(Cl)cc2)c2nc3ccccc3s2)cc1	-7	5.9	2.2	0.8	-2	3%	-2
CCc1ccc(NC(=O)CC2C(=O)N(c3ccc(C)cc3)C(=O)N2C2CC2)cc1 (stereo not given)	2	0.0	?	6.8	/	8%	-7
CC(NC(=O)CSc1ncccn1)c1ccccc1 (stereo not given)	8	-2.6	7.2	1.5	-2	5%	-7
CCOC(=O)C1=C(C)NC(=O)NC1	-4	-0.2	-0.2	-3.8	/	-6%	1
CC(C)(C)OC(=O)CC[C@@H](C(=O)NCCCCCCCCCCC(=O)N1CCN(C(=O)OC(C)(C)C)CC1)n1cc(CCCCCNC(=O)OC(C)(C)C)nn1	/	-4.4	/	-1.0	-41	/	15
Cc1ccccc1NC(=O)c1c(-c2ccccc2)noc1C	23	-3.0	7.9	1.3	-4	-3%	-6
Cc1cc(NC(=O)C2C3C(=O)N(CC4CCCO4)C(C(=O)NCc4ccccc4)C34C=CC2(C)O4)no1 (stereo not given)	-2	-1.8	0.1	-0.8	-4	13%	-7
COc1cc2c(cc1NC(=S)Nc1cccc(C(F)(F)F)c1)oc1ccccc12	-10	0.6	6.1	0.0	3	17%	5
O=C(CCCC(=O)OCC(=O)c1cccs1)Nc1ccc(F)cc1	3	0.8	-0.7	0.7	/	4%	-7
CN(C)c1ccc(/C=N/NC(=O)Cn2nnc3ccccc32)cc1	-7	-0.2	?	1.8	99*	/	-3

The results go on:
SMILES	Calb FLC	LANA-H2A inh	RanGTP-Impb inh	HNF4A DNA FP	ALR H2O2 inh	Vif TR-FRET	Beta2AR agonist
CCCCn1cc(SCC(=O)O)c2ccccc21	0	0.9	-1.6	-4.7	/	1%	-3
CC(C)CCOP(=O)(c1ccc(N(C)C)cc1)C(O)c1ccccn1 (stereo not given)	?	2.5	-1.7	3.7	-5	-1%	1
CCNC(=O)CSc1nc2ccccc2c(=O)n1OC	-9	16	-6.2	1.6	-10	0%	4
COc1ccc(C)cc1NC(=O)c1cc2ccccc2cc1OCC(=O)NCc1ccco1	1	-2.3	2.5	-3.2	-5	10%	6
CCn1c(SCc2ccc(C(=O)Nc3nccs3)cc2)nnc1-c1ccc(N)cc1	3	-1.4	1.7	-0.1	82*	-8%	-1
CCC(C)Nc1nc(N)c([N+](=O)[O-])c(NCCO)n1 (stereo not given)	4	-5.3	-2.0	-0.3	-17	20%	-1
O=C(COc1ccccc1)NCc1nnc(SCC(=O)Nc2nccs2)n1-c1ccccc1	-2	-0.2	-0.9	4.3	/	0%	4
O=C(N/N=C/c1ccc(Br)s1)c1cccs1	-4	-1.1	-0.6	1.6	0	25%	-9
O=C(CNc1n[nH]c(=O)[nH]c1=O)N/N=C/C=C/c1ccccc1	-13	4.4	-5.4	2.4	-7	-8%	-1
CC(C)(C)c1nnc(NC(=O)CS(=O)(=O)Cc2ccccc2)s1	-2	-5.1	1.8	-4.8	-9	4%	-3
COc1ccc(S(=O)(=O)CC2(O)CCN(C(=O)C(C)(C)C)CC2)cc1	3	1.2	-2.8	-0.8	2	-2%	-4
S=c1nccc(-c2ccc(Cl)cc2)[nH]1	-4	-1.1	-2.2	1.7	/	-12%	9
Cc1ccc(C)c(NNC(N)=S)c1	1	-0.5	3.5	-1.5	/	-1%	-2
CCCc1nnc(SCC(=O)NC2CCCCC2)n1CCOC	-9	1.9	1.3	3.4	1	-4%	3
O=C(NCCc1csc(-c2cccnc2)n1)c1c(F)cccc1F	-3	4.0	0.4	-1.9	-9	13%	-21

Laid out differently: results already given
mol | Calb FLC | LANA-H2A inh | RanGTP-Impb inh | HNF4A DNA FP | ALR H2O2 inh | Vif TR-FRET | Beta2AR agonist
Cc1ccc(C)c(NNC(N)=S)c1 | 1 | -0.5 | 3.5 | -1.5 | / | -1% | -2
CCCc1nnc(SCC(=O)NC2CCCCC2)n1CCOC | -9 | 1.9 | 1.3 | 3.4 | 1 | -4% | 3

Further records follow.
SMILES	Calb FLC	LANA-H2A inh	RanGTP-Impb inh	HNF4A DNA FP	ALR H2O2 inh	Vif TR-FRET	Beta2AR agonist
O=C(C1=C[C@@H](C2CCCCC2)C[C@@H](OCCCCO)O1)N1CCN(Cc2ccccc2)CC1	-4	5.7	-0.2	4.4	2	/	4
O=C(Nc1ccc(S(=O)(=O)Nc2ccccn2)cc1)c1cccc(Br)c1	-29	3.6	1.0	-1.1	/	/	23
O=C(/C=C/c1ccccc1)c1ccoc1	0	-1.0	?	3.1	13	-4%	0
CCN1CCN(Cc2ccc(NC(=O)c3ccc(C)c(NC(=O)c4cccc(-c5cn[nH]c(=O)c5)c4)c3)cc2C(F)(F)F)CC1	27	-3.6	-1.1	3.8	4	/	8
CCCC(c1nnnn1CCOC)N1CCN(C(=O)c2ccco2)CC1 (stereo not given)	-5	-7.8	4.9	5.2	2	10%	-2
